Screens (PubChem BioAssay)
PABP FP inh – PABP poly(A) RNA binding inhibitors, primary screen, biochemical, fluorescence polarization, uHTS; Polyadenylate-binding protein 1 (Homo sapiens), P11940; inhibition, % at 35 µM; actives 1% (n = 290,000); AID 2014, 2009;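 active = 50% or more with normal probe brightness, or confirmed in later tests; about a fifth of its hits are not listed in these tables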;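 also: calls also rest on retests at 20 µM and on dose response follow-up; controls were probe without protein and protein plus probe with vehicle; some compounds called inactive have numbers as strong as hits; many hits fall short of the cut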
Target sequence (P11940 whole entry, looked up): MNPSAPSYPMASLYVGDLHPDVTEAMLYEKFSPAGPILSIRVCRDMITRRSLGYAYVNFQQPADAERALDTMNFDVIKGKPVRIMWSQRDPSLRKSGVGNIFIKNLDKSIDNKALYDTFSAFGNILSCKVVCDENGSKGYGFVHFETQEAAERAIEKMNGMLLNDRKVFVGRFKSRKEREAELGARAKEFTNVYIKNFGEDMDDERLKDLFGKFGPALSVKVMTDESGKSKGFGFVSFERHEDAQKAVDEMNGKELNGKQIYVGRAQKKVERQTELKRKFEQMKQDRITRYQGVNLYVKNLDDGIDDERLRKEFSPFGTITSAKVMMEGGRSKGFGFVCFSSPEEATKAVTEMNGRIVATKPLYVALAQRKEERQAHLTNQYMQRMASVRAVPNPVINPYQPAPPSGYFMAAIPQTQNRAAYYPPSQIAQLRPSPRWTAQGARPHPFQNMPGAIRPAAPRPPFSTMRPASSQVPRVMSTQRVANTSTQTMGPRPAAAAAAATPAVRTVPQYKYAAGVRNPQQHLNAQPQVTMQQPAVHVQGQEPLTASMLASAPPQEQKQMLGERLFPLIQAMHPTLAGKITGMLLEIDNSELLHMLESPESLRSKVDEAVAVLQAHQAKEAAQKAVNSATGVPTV
Env fusion inh – inhibitors of HIV-1 Env-driven cell-cell fusion, primary screen, HeLa-JRFL effector, CEM21 target cells, luciferase | inhibition, % at 12.3 µM | actives 1.1% (n = 360,000);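 active = mean replicate inhibition score of at least 50 and every replicate individually at or above 50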;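 also: 0% = plate neutral controls and 100% = maraviroc near 300 nM; one replicate is shown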
CSC inhib – cancer stem cell viability inhibitors, primary screen, luminescence. cancer stem cell-like cells viability. inhibition, % at 7.5 µM. actives 1.1% (n = 300,000). AID 2717, 2010;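 active = mean at 75% or more and at least half the replicates too; tested in HMLE shEcad cells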;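 also: 0% = median of negative and 100% = median of positive control wells; the first replicate is given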
Rce1 inh – yeast Rce1p protease inhibitors, primary screen, biochemical, fluorescence, cell-free homogeneous; CAAX prenyl protease 2 (Saccharomyces cerevisiae (strain ATCC 204508 / S288c)), Q03530; yeast membranes, quenched prenylated peptide cleavage fluorescence; calls only; actives 0.27% (n = 290,000); AID 2563, 2010;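 active = fall in fluorescence gain of 50% or more versus controls, with final raw signal at or below 3038400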;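 also: plate controls were neutral control wells for no effect and wells lacking membranes for full effect; tested at 10 µM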
Target sequence (Q03530 whole entry, looked up): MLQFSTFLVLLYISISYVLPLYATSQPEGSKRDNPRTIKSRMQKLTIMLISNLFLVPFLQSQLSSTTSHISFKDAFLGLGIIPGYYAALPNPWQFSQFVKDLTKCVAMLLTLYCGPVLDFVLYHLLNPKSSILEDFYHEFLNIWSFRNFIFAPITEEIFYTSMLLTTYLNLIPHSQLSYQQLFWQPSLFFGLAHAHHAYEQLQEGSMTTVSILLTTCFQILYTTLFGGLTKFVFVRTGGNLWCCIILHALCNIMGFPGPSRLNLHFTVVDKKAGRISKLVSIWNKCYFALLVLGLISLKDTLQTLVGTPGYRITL
Yeast UUG start – modulators of yeast start codon fidelity, primary screen, whole organism, S. cerevisiae, single point, plate reader; activity score, % at 18.7 µM; actives 0.13% (n = 350,000); S. cerevisiae UUG-firefly luciferase reporter, luminescence/redox ratio;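 active = replicate mean at a twofold rise or more, about +100% in these data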;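 also: firefly luciferase made from a UUG start codon reports start codon fidelity; reporter light over untreated wells divided by growth signal over untreated wells; some hits fall short of that in this replicate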
eIF4H FP inh – human eIF4H binding inhibitors, primary screen, translation initiation inhibitor project, biochemical, uHTS, fluorescence polarization; actives 0.94% (n = 290,000); eIF4H fluorescence polarization binding assay; inhibition, % at 35 µM; Eukaryotic translation initiation factor 4H (Homo sapiens), Q15056;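 active = 50% or more with normal probe brightness, or confirmed in later tests; about a fifth of its hits are not listed in these tables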;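 also: calls also rest on retests at 20 µM and on dose response follow-up; 0% = protein and probe with vehicle and 100% = probe without protein; strong numbers were not always called active; many hits fall short of the cut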
MT1-MMP act inh – blockers of MT1-MMP proenzyme processing, primary screen, HT1080 RFP-PRO-GFP cells, GFP/RFP fluorescence | AID 651647, 2012 | actives 0.061% (n = 360,000) | Matrix metalloproteinase-14 (Homo sapiens), P50281 | GFP/RFP ratio fluorescence, overnight; percent of plate control window, DMSO zero | GFP/RFP ratio change, % at 20 µM;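 active = GFP/RFP ratio change of at least 30% with cell ATP level not reduced by more than half and red fluorescence within 50% of control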; also: strong numbers were not always called active
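Test system: HT1080 cells expressing an RFP-PRO-GFP fluorescent reporter construct / Compound dosing: single-point 20 µM compound, 1% DMSO / Schedule: cells overnight before dosing, compound overnight, 37 °C, 5% CO2 / Evaluation: GFP/RFP fluorescence ratio / Control set: DMSO and RFP-L50D-GFP cell wells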
eIF4H FP inh retest – further read-out of eIF4H FP inh, marked with its call; inhibition, %; compound at 20 µM; confirmation average;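 mean of two retest wells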
PABP FP inh retest – second read-out of PABP FP inh, no call of its own (marks repeat the call); inhibition, %; compound at 20 µM; confirmation repeats;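 mean of two retest wells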
MT1-MMP act inh RFP – second read-out of MT1-MMP act inh, no call of its own (marks repeat the call); RFP signal change, %; measured here: RFP expression control read;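 0 = vehicle wells; hits needed this value within 50% of zero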
* marks the source's active call; other numbers are inactive results; i = inactive; . = no result given. Outcome played no part in choosing rows; any-hit rate near 3%.

Preview:
SMILES	PABP FP inh	Env fusion inh	CSC inhib	Rce1 inh	Yeast UUG start	eIF4H FP inh	MT1-MMP act inh	MT1-MMP act inh RFP	others
CC(C)CC(NC(=O)C(NC(=O)C(Cc1ccc(OCc2ccccc2)cc1)NC(=O)OC(C)(C)C)C(C)C)C(N)=O (stereo unspecified)	10	.	138*	i	.	-8	4	2
CC(C)Nc1nc(NC(C)(C)C)nc(Oc2ccc(=O)n(C)n2)n1	-6	-8	-9	i	-19	8	3	7
COc1ccc(C(c2sc3nc(C)nn3c2O)N2CC(C)OC(C)C2)cc1OC (stereo unspecified)	-5	3	-10	i	-5	3	3	8
CN(CCCC(=O)N1CCCC(C(N)=O)C1)S(=O)(=O)c1ccc(F)cc1 (stereo unspecified)	6	1	1	i	-13	2	2	0
CC(=O)c1c(C)[nH]c(C(=O)NCc2ccc(Cl)cc2)c1C	.	-2	.	.	0	.	2	-5

This part in full (from the top)
SMILES	PABP FP inh	Env fusion inh	CSC inhib	Rce1 inh	Yeast UUG start	eIF4H FP inh	MT1-MMP act inh	MT1-MMP act inh RFP	others
CC(C)CC(NC(=O)C(NC(=O)C(Cc1ccc(OCc2ccccc2)cc1)NC(=O)OC(C)(C)C)C(C)C)C(N)=O (stereo unspecified)	10	.	138*	i	.	-8	4	2
CC(C)Nc1nc(NC(C)(C)C)nc(Oc2ccc(=O)n(C)n2)n1	-6	-8	-9	i	-19	8	3	7
COc1ccc(C(c2sc3nc(C)nn3c2O)N2CC(C)OC(C)C2)cc1OC (stereo unspecified)	-5	3	-10	i	-5	3	3	8
CN(CCCC(=O)N1CCCC(C(N)=O)C1)S(=O)(=O)c1ccc(F)cc1 (stereo unspecified)	6	1	1	i	-13	2	2	0
CC(=O)c1c(C)[nH]c(C(=O)NCc2ccc(Cl)cc2)c1C	.	-2	.	.	0	.	2	-5
COc1cc(C(=O)N[C@H](C(=O)OCC(=O)NC2CCCCCC2)C(C)C)cc(OC)c1OC	.	-1	-16	.	7	.	-3	2
CCc1ccc(NC(=O)C(=O)NCC2CCCN2S(=O)(=O)c2cccs2)cc1 (stereo unspecified)	.	32	-5	i	1	.	0	-13
COc1ccccc1N(CC(=O)NCc1ccc(F)cc1)C(=O)CCC(=O)Nc1ccccn1	-6	16	-16	i	.	-5	-8	-1
CC(C)CCNC(=O)C1CCCN(S(=O)(=O)c2ccc3c(c2)CC(C)N3C(=O)C2CC2)C1 (stereo unspecified)	-1	13	6	i	-12	-8	1	-1
CCOc1ccccc1NC(=O)CCN1CCN(S(=O)(=O)c2ccc(OC)cc2)CC1	-3	.	14	i	-29	-5	-3	-1
COC(=O)C(Cc1cnc(Cl)s1)(C(=O)OC)c1ccc(C(F)(F)F)cc1[N+](=O)[O-]	-9	-19	4	i	3	8	-5	-9
CCOC(=O)Cn1nnnc1C(CC)N(Cc1cc2ccc(C)cc2[nH]c1=O)C1CCCC1 (stereo unspecified)	-2	.	.	i	-2	-12	-6	-1
Cc1cc(C)c(C(N)=O)c(Nc2ccc(F)cc2)n1	-8	30	-12	i	-18	-2	1	-1
CC1CCN(C(=O)COC(=O)c2ccccc2NC(=O)c2ccco2)CC1	-2	16	-10	i	.	7	-2	-4
Cc1cccc(COCC(Cc2ccccc2)N2CCN(C(=O)c3cc(Cl)cc(Cl)c3)CCC2=O)c1 (stereo unspecified)	1	.	31	i	8	6	-2	-7

Fetched one by one from above:
SMILES	PABP FP inh	Env fusion inh	CSC inhib	Rce1 inh	Yeast UUG start	eIF4H FP inh	MT1-MMP act inh	MT1-MMP act inh RFP	others
CC(=O)c1c(C)[nH]c(C(=O)NCc2ccc(Cl)cc2)c1C	.	-2	.	.	0	.	2	-5
COc1ccc(C(c2sc3nc(C)nn3c2O)N2CC(C)OC(C)C2)cc1OC (stereo unspecified)	-5	3	-10	i	-5	3	3	8

Going on with the list.
SMILES	PABP FP inh	Env fusion inh	CSC inhib	Rce1 inh	Yeast UUG start	eIF4H FP inh	MT1-MMP act inh	MT1-MMP act inh RFP	others
Cc1cccc(NC(=S)N(C)C2CCCCC2)c1	14	9	-9	i	-14	14	4	3
O=C(O)c1ccc(/C=N/Nc2ccc(S(=O)(=O)N3CCCC3)cc2[N+](=O)[O-])cc1	6	4	-2	.	11	-3	10	-4
COc1ccc(CNC(=O)C2CCCC2)cc1	.	2	.	i	-3	.	0	2
O=C(CC1SC(=NCc2ccccc2)NC1=O)Nc1ccccc1 (stereo unspecified)	-5	15	5	i	-10	2	-1	-6
CC(=O)c1ccc(OCC(O)CN2CCN(c3ccc(F)cc3)CC2)cc1 (stereo unspecified)	13	-9	-5	i	.	-8	-2	-4
CN(C)S(=O)(=O)n1ccnc1	4	-34	-7	i	-15	-4	0	9
CCc1cc(=O)oc2cc(OCC(=O)NCCN3CCOCC3)c(Cl)cc12	-8	-9	20	i	-3	-7	5	4
Cc1sc2nc(CSc3ncn[nH]3)[nH]c(=O)c2c1C	-12	-10	-5	i	.	4	-7	-3
COc1ccc(C2N(c3ccccn3)C(=O)C3CCCN32)c(OC)c1 (stereo unspecified)	-12	-47	-13	i	-9	0	0	10
CC(C)OCCCNc1ncnc2c1[nH]c1ccc(F)cc12	0	.	4	i	-16	-14	-6	-26
CC(C)Cc1nc(S(=O)(=O)c2ccc(Cl)cc2)c(N2CCOCC2)o1	4	.	.	i	-19	-9	7	8
O=C(Nc1ccc(C(=O)O)cc1)/C(=C\c1ccco1)NC(=O)c1ccccc1	15	0	9	i	-9	27	-6	1
CCOC(=O)N1CCC(NC(=O)c2ccc(CS(=O)(=O)c3ccccc3C)o2)CC1	3	-38	-6	i	-2	8	10	3
CCOC(=O)c1cnc(-c2ccccc2)nc1N1CCOCC1	92	10	-7	i	.	-11	1	-1	eIF4H FP inh retest=0;PABP FP inh retest=16
O=C(CCc1ccccc1)Nc1cc(C(F)(F)F)ccc1Cl	-17	27	-1	i	-11	-1	4	1

Three entries from above, sorted by molecular weight, largest number first.
SMILES	PABP FP inh	Env fusion inh	CSC inhib	Rce1 inh	Yeast UUG start	eIF4H FP inh	MT1-MMP act inh	MT1-MMP act inh RFP	others
CCc1cc(=O)oc2cc(OCC(=O)NCCN3CCOCC3)c(Cl)cc12	-8	-9	20	i	-3	-7	5	4
CCOC(=O)c1cnc(-c2ccccc2)nc1N1CCOCC1	92	10	-7	i	.	-11	1	-1	eIF4H FP inh retest=0;PABP FP inh retest=16
CN(C)S(=O)(=O)n1ccnc1	4	-34	-7	i	-15	-4	0	9

The list continues.
SMILES	PABP FP inh	Env fusion inh	CSC inhib	Rce1 inh	Yeast UUG start	eIF4H FP inh	MT1-MMP act inh	MT1-MMP act inh RFP	others
COc1cccc(-n2c(Cc3cc(=O)[nH]c(=O)[nH]3)nnc2SCC(=O)NC2CCCCC2)c1	-7	11	-29	.	-6	-8	-1	3
COc1ccc(C2c3c(nc[nH]c3=O)Oc3nc[nH]c(=O)c32)cc1	0	.	-6	i	-2	12	0	4
COc1ccc2c(COC(=O)CC3Sc4ccccc4NC3=O)cc(=O)oc2c1 (stereo unspecified)	-3	6	6	i	.	29	-2	-1
CCOC(=O)CSc1nnc(-c2ccco2)n1-c1ccccc1	2	.	-10	i	-22	-6	2	8
O=C(NCCc1nnc2ccc(NCCCN3CCOCC3)nn12)c1ccccc1F	-9	1	-16	i	-14	-13	0	4
CCCCC(=O)Nc1ccnc(-c2cccnc2)n1	-6	-98	-5	i	-7	-5	5	1
Cc1ccc(NC(=O)c2ccc(CSc3nnc(-c4ccncc4)n3C)cc2)cc1	-2	.	-5	i	-20	0	4	4
Cc1cc(C(=O)NNC(=O)c2cccc([N+](=O)[O-])c2)n[nH]1	.	.	0	.	-17	.	-3	1
COc1ccc(/C=N\NC(=O)c2ccccc2Br)cc1COc1ccc(F)cc1	-6	8	17	i	1	-9	0	-6
Cc1nc(C(=O)NCCC(C)C)sc1C1(C)CC(c2cccc([N+](=O)[O-])c2)=NO1 (stereo unspecified)	2	8	.	i	-19	1	9	-6
CSc1ccccc1NC(=O)Nc1cccc(Cl)c1C	-25	6	-2	i	.	9	0	-3
COCCNc1nc2cc(-c3ccccc3)sc2c(=O)n1C	.	3	.	.	-9	.	3	0
O=C(CSc1nnc(-c2ccc(Br)o2)n1Cc1ccccc1)c1ccccc1F	3	-19	-1	i	-11	-1	3	8
Cc1cccc(NC(=O)CN(CC2CCCO2)C(=O)c2oc3ccccc3c2C)c1C (stereo unspecified)	.	13	-16	.	3	.	-1	2
Cc1c(OC(C)C(=O)O)ccc2c3c(c(=O)oc12)CCCC3 (stereo unspecified)	14	1	-2	i	-9	-6	3	-1

Structures listed so far that contain bromine (two):
SMILES	PABP FP inh	Env fusion inh	CSC inhib	Rce1 inh	Yeast UUG start	eIF4H FP inh	MT1-MMP act inh	MT1-MMP act inh RFP	others
COc1ccc(/C=N\NC(=O)c2ccccc2Br)cc1COc1ccc(F)cc1	-6	8	17	i	1	-9	0	-6
O=C(CSc1nnc(-c2ccc(Br)o2)n1Cc1ccccc1)c1ccccc1F	3	-19	-1	i	-11	-1	3	8

More compounds follow.
SMILES	PABP FP inh	Env fusion inh	CSC inhib	Rce1 inh	Yeast UUG start	eIF4H FP inh	MT1-MMP act inh	MT1-MMP act inh RFP	others
COC(=O)c1sccc1NC(=O)c1ccc(C)s1	0	-16	11	i	-12	-18	1	11
CC(C)(C)c1cc2cccnc2n1Cc1cccc(Cl)c1	-1	-77	6	i	-18	3	1	-4
CCN(CC)C(=O)C1CCCN(C(=O)c2oc3ccc(C)cc3c2C)C1 (stereo unspecified)	-1	-1	-2	i	3	3	-2	2
CCN(CC)C(=O)c1cc2c(=O)c3cc(F)ccc3oc2nc1C	14	0	-16	i	5	-5	-3	0
CCOC(=O)C1(C)CCN1C(=O)c1cc(F)cc(F)c1 (stereo unspecified)	.	-8	.	.	0	.	-2	1
CCn1cc(C(=O)NC(=S)Nc2ccccc2Br)cn1	-5	.	-6	i	-24	-4	4	2
CCOC(=O)C1(C)CCCN(C(=O)c2ccc(OC)cc2OC)C1 (stereo unspecified)	.	-37	.	.	-18	.	2	5
Cc1nc(C)c(C(=O)Nc2ccccc2-c2ccccc2)o1	0	3	0	i	-13	9	-10	0
CCOCCCNC(=O)c1ccc(/C=C2\Oc3ccccc3N(C)C2=O)cc1	2	-6	-1	i	-1	-8	3	1
CC1CC(C)CN(c2nc(NCc3ccco3)nc(N)c2[N+](=O)[O-])C1 (stereo unspecified)	14	.	-5	i	.	1	-9	-26
Cn1cc(CC(=O)NCCCN2CCOCC2)c2ccccc21	-2	-5	-37	i	-1	9	-3	-6
COc1ccc(OC)c(-c2nnc(-c3ccc(C)o3)o2)c1	-1	-15	-11	i	-4	1	-13	0
C/C(=N\NC(=O)Cc1ccc(Cl)cc1)c1cccc(NC(=O)c2cccnc2)c1	-3	14	0	i	-1	-20	-3	-1
O=C(NC(=S)Nc1ccc(Br)cn1)c1cccnc1	0	-29	-9	i	.	-5	4	0
